Vaccinia mCherry: inhibitors of vaccinia virus infection (mCherry reporter signal) | Potency, µM (highest dose often 36.5 µM), without a hit: top-dose activity change, negative = inhibition, actives largely listed as inhibitors | Vaccinia virus mCherry reporter infection, fluorescence; about a quarter of the inactives have no number | AID 720579 | 310,000 compounds, 0.63% hits; active = well fitted inhibition curve with a large enough effect; inconclusive = small, poorly fitted or top-dose-only effect; inactive = no such curve, though single readings can be large or run the other way; tested in A549 cells; note: nearly all actives have a fitted effect of over 35% in size; inactives centre near -10
VACV Venus inh: inhibitors of vaccinia virus (Venus reporter). Vaccinia virus Venus reporter expression, fluorescence. 330,000 compounds, 0.46% hits. Potency, µM (doses to about 36.5 µM), for inactives: top-dose activity change, negative = inhibition, actives largely listed as inhibitors. AID 720580; active means well fitted inhibition curve with a large enough effect; inconclusive means small, poorly fitted or top-dose-only effect; inactive means no such curve, though single readings can be large or run the other way; tested in A549 cells; note: nearly all actives have a fitted effect of over 30% in size; inactives centre near -10
* marks the source's active call; other numbers are inactive results; ? = inconclusive; & = joins results of further samples. % is set by controls: 0 for no effect and ±100 for the full control effect; potency is the fitted concentration of half-maximal effect.

#1 CC(=O)Nc1ccc(NC(=O)C(C)OC(=O)c2cccc(S(=O)(=O)N3CCCC3)c2)cc1 (stereo not given)
#2 O=C(Nc1ccc(F)cc1)C1CCN(c2nc3ccccc3nc2C(F)(F)F)CC1
#3 CNC(=O)c1nn(C)c(=O)[nH]c1=O
#4 Cc1ccc(Cn2cc(C=O)c(-c3ccc(C)cc3)n2)cc1
#5 O=C(/C=C/c1ccc([N+](=O)[O-])cc1)Nc1cccc(S(=O)(=O)NC2=NCCCCC2)c1
#6 COC(=O)c1cc2occc2n1Cc1nc(-c2cccc(Cl)c2)oc1C

Screen / compound no. | 1 | 2 | 3 | 4 | 5 | 6
Vaccinia mCherry | 0% | -1% | -15% | -17% | -21% | -13%&13%
VACV Venus inh | -11% | -15% | -16% | -8% | ? | -8%&-1%

Sorted by molecular weight (ascending): some entries from above
#3 CNC(=O)c1nn(C)c(=O)[nH]c1=O
#2 O=C(Nc1ccc(F)cc1)C1CCN(c2nc3ccccc3nc2C(F)(F)F)CC1
#1 CC(=O)Nc1ccc(NC(=O)C(C)OC(=O)c2cccc(S(=O)(=O)N3CCCC3)c2)cc1 (stereo not given)

Screen / compound no. | 3 | 2 | 1
Vaccinia mCherry | -15% | -1% | 0%
VACV Venus inh | -16% | -15% | -11%

Source: PubChem
